# FGF22 binding: FGF22 (human) thermal shift binding | Q9HCT0 | recombinant FGF22 thermal shift, SYPRO orange fluorescence; percent of sucrose octasulfate shift, DMSO zero | calls only at 9.99 µM | actives 1.5% (n = 340,000);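 active means melting point raised past a set limit in the mean and every replicate; three in four hits are not shown here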
# Target sequence (Q9HCT0 whole entry, looked up): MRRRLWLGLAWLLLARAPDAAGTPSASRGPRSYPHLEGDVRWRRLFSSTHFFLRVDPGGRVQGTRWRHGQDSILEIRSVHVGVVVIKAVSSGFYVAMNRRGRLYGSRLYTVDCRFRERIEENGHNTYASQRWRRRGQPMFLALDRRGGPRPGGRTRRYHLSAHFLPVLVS
# Calls only; i = inactive. Some of the compounds tested; the hit share may differ from the screen's.
# Preview (two entries):
SMILES,FGF22 binding
COCc1cn(CC[C@@H]2CC[C@H](NC(=O)Nc3ccc4c(c3)OCO4)[C@@H](CO)O2)nn1,i
COc1ccc(NC(=O)N(C)C[C@@H]2OCCCC[C@@H](C)Oc3ccc(NS(=O)(=O)c4ccccc4)cc3C(=O)N([C@@H](C)CO)C[C@H]2C)cc1,i

# Results, from the start:
SMILES,FGF22 binding
COCc1cn(CC[C@@H]2CC[C@H](NC(=O)Nc3ccc4c(c3)OCO4)[C@@H](CO)O2)nn1,i
COc1ccc(NC(=O)N(C)C[C@@H]2OCCCC[C@@H](C)Oc3ccc(NS(=O)(=O)c4ccccc4)cc3C(=O)N([C@@H](C)CO)C[C@H]2C)cc1,i
C=CCNC(=S)N(C)[C@H]1C[C@H]2c3cc(-c4ccccc4C)ccc3CCN2C[C@H]1[C@H](C)O,i
CO[C@H]1CN(C)C(=O)c2cc(NC(=O)C3CC3)ccc2OC[C@H](C)N(C(=O)c2cnccn2)C[C@@H]1C,i
CC(C)(C)OC(=O)N1CCC[C@@H]1C(=O)N1CCC[C@@H]1C(=O)NCc1ccccc1,i
CO[C@@H](CN(C)Cc1ccc2c(c1)OCO2)[C@H](C)CN(C(=O)c1ccccc1)[C@H](C)CO,i
COC(=O)N(C)C[C@@H]1OCc2ccccc2-c2c(n(C)c3ccccc23)C(=O)N([C@H](C)CO)C[C@H]1C,i
COc1ccccc1S(=O)(=O)N[C@H]1C=C[C@H](CC(=O)NCc2cccc(F)c2)O[C@@H]1CO,i
COCC(=O)N1C[C@H](C)[C@@H](OC)CN(C)C(=O)c2cc(NC(=O)c3cnccn3)ccc2OC[C@@H]1C,i
COCC(=O)N1[C@H](CO)[C@@H](c2ccccc2)C12CN(C(=O)Cc1ccccn1)C2,i
C[C@H](CO)N1C[C@H](C)[C@@H](CN(C)CC2CCCCC2)Oc2ccc(NS(=O)(=O)c3ccccc3)cc2C1=O,i
Cc1noc(C)c1S(=O)(=O)Nc1cccc2c1O[C@H](CN(C)C(=O)NC1CCCCC1)[C@H](C)CN([C@@H](C)CO)C2=O,i
COc1cccc(-c2ccc3n(c2=O)C[C@H]2[C@H](CO)[C@@H](C(=O)N(C)C)[C@@H]3N2C(=O)c2cnccn2)c1,i
CCNC(=O)C[C@H]1CC[C@@H]2[C@H](COC[C@H](O)CN2C(=O)Nc2ccc3c(c2)OCO3)O1,i
CO[C@@H]1CC[C@H]2CCN(C)C(=O)C[C@@H](c3ccccc3)CN(C)C(=O)c3cccc(C#N)c3OC[C@H]1O2,i
C[C@H]1CN([C@@H](C)CO)S(=O)(=O)c2ccc(C#CC(C)(C)O)cc2O[C@@H]1CN(C)C,i
COc1ccc(S(=O)(=O)N(C)C[C@H]2OCCCC[C@H](C)Oc3ccc(NC(=O)Nc4ccc5c(c4)OCO5)cc3C(=O)N([C@H](C)CO)C[C@H]2C)cc1,i
CCCNC(=O)N(C)C[C@H]1Oc2cc(Br)ccc2S(=O)(=O)N([C@@H](C)CO)C[C@H]1C,i
C[C@H](CO)N1C[C@H](C)[C@H](CN(C)C(=O)CCC(F)(F)F)OCCCC[C@H](C)Oc2ccc(NS(=O)(=O)c3ccc(F)cc3)cc2C1=O,i
C[C@H](CO)N1C[C@H](C)[C@@H](CN(C)S(=O)(=O)c2ccccc2)Oc2ccc(NC(=O)CCCCCC(=O)Nc3ccccc3N)cc2C1=O,i
C/C=C/c1cnc2c(c1)C(=O)N([C@@H](C)CO)C[C@H](C)[C@@H](CN(C)S(=O)(=O)c1ccc(OC)cc1)O2,i
N#C[C@H]1[C@@H](c2ccccc2C2=CCCCC2)[C@H](CO)N1S(=O)(=O)c1ccccc1,i
C[C@H]1CN([C@@H](C)CO)C(=O)Cc2cc(NS(C)(=O)=O)ccc2O[C@@H]1CN(C)C(=O)Nc1ccc2c(c1)OCO2,i
C[C@H](CO)N1C[C@H](C)[C@@H](CN(C)Cc2ccccc2F)Oc2cc(C3=CCCCC3)ccc2S1(=O)=O,i
C[C@H](CO)N1C[C@H](C)[C@H](CN(C)C(=O)Nc2ccc(C(F)(F)F)cc2)OCCCC[C@H](C)Oc2ccc(NC(=O)Nc3ccc4c(c3)OCO4)cc2C1=O,i
O=C(C1CCC1)N1CCCCN2[C@H](CO)[C@@H](c3ccc(-c4cccc(F)c4)cc3)[C@@H]2C1,i
C[C@H]1CN([C@@H](C)CO)C(=O)c2c(c3ccccc3n2C)-c2ccccc2CO[C@@H]1CN(C)C(=O)Nc1ccc(F)cc1,i
C[C@H](CO)N1C[C@H](C)[C@H](CN(C)C(=O)Nc2cccc(F)c2)Oc2ncc(C3=CCCCC3)cc2C1=O,i
C[C@@H]1CN([C@@H](C)CO)C(=O)Cc2cc(NC(=O)Nc3ccc(C(F)(F)F)cc3)ccc2O[C@H]1CN(C)Cc1ccc(C(F)(F)F)cc1,i
COc1ccc(CNC(=O)C[C@@H]2CC[C@H](NC(=O)CN(C)C)[C@@H](CO)O2)cc1,i
COC(=O)C1=C(C)N(Cc2ccccc2C(F)(F)F)C(=NCc2cc(OC)c(OC)c(OC)c2)NC1CCc1ccccc1 (stereo not drawn),i
COc1ccc(NC(=O)N(C)C[C@@H]2Oc3cc(-c4cccc(C(=O)N(C)C)c4)ccc3S(=O)(=O)N([C@H](C)CO)C[C@@H]2C)cc1,i
Cc1ccccc1-c1ccc2c(c1)O[C@@H](CN(C)C(=O)Nc1ccccc1)[C@H](C)CN([C@H](C)CO)S2(=O)=O,i
COc1ccc(C#Cc2cnc3c(c2)C(=O)N([C@H](C)CO)C[C@H](C)[C@H](CN(C)S(=O)(=O)c2ccc(C)cc2)O3)cc1OC,i
CC(C)NC(=O)N1[C@@H](C#N)[C@@H](c2ccc(C#CC3CCCCC3)cc2)[C@@H]1CO,i
C[C@@H]1CN([C@@H](C)CO)C(=O)c2cccc(NC(=O)c3ccncc3)c2O[C@@H]1CN(C)Cc1ccc(C(=O)O)cc1,i
O=C(O)[C@@H]1[C@@H](CO)[C@@H]2Cn3c(ccc(-c4ccccc4)c3=O)[C@@H]2N1CCc1ccccc1,i
C[C@@H]1CN([C@@H](C)CO)C(=O)c2cc(NC(=O)c3ccccc3)ccc2O[C@@H](C)CCCCO[C@H]1CN(C)C(=O)Nc1ccc2c(c1)OCO2,i
COc1ccc2c3c(n(C)c2c1)[C@@H](CO)N(C(=O)CC1CC1)CC31CN(C(=O)C2CC2)C1,i
C[C@@H]1CN([C@@H](C)CO)C(=O)Cc2cc(NS(=O)(=O)c3cn(C)cn3)ccc2O[C@@H]1CN(C)C(=O)Nc1ccc2c(c1)OCO2,i
O=C(C[C@H]1C[C@H]2c3cc(NC(=O)NC4CCCC4)ccc3O[C@H]2[C@@H](CO)O1)NCc1ccc(Oc2ccccc2)cc1,i
C[C@@H]1CN([C@@H](C)CO)C(=O)CCCn2cc(nn2)CO[C@H]1CN(C)C(=O)Nc1ccccc1,i
C[C@@H]1CN([C@@H](C)CO)C(=O)c2cc(NC(=O)CCC(F)(F)F)ccc2O[C@@H](C)CCCCO[C@@H]1CN(C)C(=O)Nc1ccc(C(F)(F)F)cc1,i
Cn1cnc(S(=O)(=O)N[C@@H]2CC[C@@H](CC(=O)Nc3ccccc3)O[C@@H]2CO)c1,i
CCCNC(=O)C[C@H]1CC[C@H]2[C@H](COc3ccc(NC(=O)c4cccc(OC)c4)cc3C(=O)N2C)O1,i
O=C(N[C@H]1CC[C@H](CCn2cc(-c3ccccc3)nn2)O[C@@H]1CO)c1cnccn1,i
C[C@H]1CCCCO[C@H](CN(C)CC2CC2)[C@@H](C)CN([C@@H](C)CO)C(=O)c2cc(NC(=O)Nc3ccc(C(F)(F)F)cc3)ccc2O1,i
N#C[C@H]1[C@H](c2ccccc2C2=CCCCC2)[C@H](CO)N1C(=O)CN1CCOCC1,i
COc1cccc(-c2cn(CC[C@@H]3CC[C@H](NC(C)=O)[C@@H](CO)O3)nn2)c1,i
O=C(Nc1ccccc1)N1CCCCN2[C@H](CO)[C@@H](c3ccc(C#CC4CC4)cc3)[C@@H]2C1,i
CC(C)COC(=O)N(C)C[C@@H]1OCc2ccccc2-c2ccccc2C(=O)N([C@@H](C)CO)C[C@@H]1C,i
CCOC(=O)N(C)C[C@@H]1OCc2cnnn2CCCC(=O)N([C@@H](C)CO)C[C@H]1C,i
O=C(C[C@@H]1CC[C@@H]2[C@H](COC[C@H](O)CN2S(=O)(=O)c2cccc(F)c2)O1)NCc1ccc2c(c1)OCO2,i
C[C@@H]1CN([C@@H](C)CO)C(=O)c2cc(NC(=O)Nc3ccc4c(c3)OCO4)ccc2O[C@@H]1CN(C)CC1CCCCC1,i
C[C@@H]1CCCCO[C@H](CN(C)Cc2ccccc2)[C@@H](C)CN([C@@H](C)CO)C(=O)c2cc(NC(=O)CCCCCC(=O)Nc3ccccc3N)ccc2O1,i
C[C@H](CO)N1C[C@H](C)[C@H](CN(C)Cc2ccc(C(F)(F)F)cc2)Oc2c(NS(=O)(=O)c3cn(C)cn3)cccc2C1=O,i
Cc1noc(C)c1NC(=O)Nc1ccc2c(c1)CC(=O)N([C@H](C)CO)C[C@H](C)[C@H](CN(C)S(=O)(=O)c1ccccc1)O2,i
CN1C(=O)c2cc(NC(=O)Cc3cccs3)ccc2OC[C@@H]2O[C@H](CC(=O)NCc3ccc(-c4ccccc4)cc3)CC[C@H]21,i
C[C@H](CO)N1C[C@H](C)[C@@H](CN(C)S(C)(=O)=O)Oc2cc(C#CC3CC3)ccc2S1(=O)=O,i
COCC(=O)N1CC(=O)N2[C@@H](CO)[C@H](c3ccc(-c4ccncc4)cc3)[C@@H]2C1,i
# The results go on:
SMILES,FGF22 binding
COCCNC(=O)C[C@H]1CC[C@H]2[C@@H](COc3ccc(NC(=O)Nc4ccccc4)cc3C(=O)N2C)O1,i
C/C=C/c1cnc2c(c1)C(=O)N([C@H](C)CO)C[C@H](C)[C@H](CN(C)Cc1ccc(F)cc1)O2,i
C[C@H](CO)N1C[C@H](C)[C@@H](CN(C)Cc2ccc(C(=O)Nc3ccccc3N)cc2)Oc2ccc(NC(=O)C3CC3)cc2C1=O,i
CCC(=O)N1CCCCN2[C@H](C1)[C@@H](c1ccc(C#Cc3ccccc3)cc1)[C@@H]2CO,i
O=C(C[C@@H]1CC[C@@H]2[C@H](COC[C@@H](O)CN2Cc2cccc(C(F)(F)F)c2)O1)NCc1ccc(Cl)cc1,i
CC(C)NC(=O)N1C[C@@H]2[C@H](c3ccccc31)[C@@H](CO)N2C(=O)Nc1ccc(F)cc1,i
C[C@H]1CN([C@@H](C)CO)C(=O)c2cc(NC(=O)Nc3ccc(F)cc3)ccc2O[C@H]1CN(C)CC1CCCCC1,i
O=C(NCc1cc(F)cc(F)c1)[C@@H]1[C@@H](CO)[C@@H]2Cn3c(cccc3=O)[C@H]1N2C(=O)c1cnccn1,i
COc1ccc(NC(=O)N(C)C[C@@H]2Oc3ccc(NC(=O)CCCN(C)C)cc3C(=O)N([C@@H](C)CO)C[C@H]2C)cc1,i
O=C(N[C@H]1C=C[C@@H](CC(=O)N2CCc3ccccc3C2)O[C@H]1CO)C1CCC1,i
CNC(=O)C[C@H]1CC[C@H]2[C@@H](COc3ccc(NC(=O)c4cccc(F)c4)cc3C(=O)N2C)O1,i
CCCC#Cc1ccc([C@H]2[C@H]3CN(S(=O)(=O)Cc4ccccc4)CCCCN3[C@H]2CO)cc1,i

# 6 entries picked at random from those above, as already listed:
SMILES,FGF22 binding
C/C=C/c1cnc2c(c1)C(=O)N([C@H](C)CO)C[C@H](C)[C@H](CN(C)Cc1ccc(F)cc1)O2,i
COCCNC(=O)C[C@H]1CC[C@H]2[C@@H](COc3ccc(NC(=O)Nc4ccccc4)cc3C(=O)N2C)O1,i
CCC(=O)N1CCCCN2[C@H](C1)[C@@H](c1ccc(C#Cc3ccccc3)cc1)[C@@H]2CO,i
COc1ccc(NC(=O)N(C)C[C@@H]2Oc3ccc(NC(=O)CCCN(C)C)cc3C(=O)N([C@@H](C)CO)C[C@H]2C)cc1,i
O=C(N[C@H]1C=C[C@@H](CC(=O)N2CCc3ccccc3C2)O[C@H]1CO)C1CCC1,i
C[C@H](CO)N1C[C@H](C)[C@@H](CN(C)Cc2ccc(C(=O)Nc3ccccc3N)cc2)Oc2ccc(NC(=O)C3CC3)cc2C1=O,i

# The listing continues.
SMILES,FGF22 binding
O=C(C[C@@H]1CC[C@H](NC(=O)Cc2cccnc2)[C@@H](CO)O1)Nc1ccc(-c2ccccc2)cc1,i
CO[C@H]1CN(C)C(=O)c2cccc(C#N)c2OC[C@@H]2O[C@H](CC[C@H]2OC)CCN(C)C(=O)[C@H]1C,i
COc1cccc(-c2ccc3c(c2)O[C@H](CN(C)C)[C@H](C)CN([C@H](C)CO)S3(=O)=O)c1,i
O=C(NCC[C@@H]1CC[C@H](NS(=O)(=O)Cc2ccccc2)[C@H](CO)O1)C1CCCC1,i
COc1ccc(NC(=O)Nc2ccc3c(c2)[C@H]2C[C@H](CC(=O)N4CCOCC4)O[C@H](CO)[C@H]2O3)cc1,i
C[C@@H]1CN([C@@H](C)CO)C(=O)Cc2cc(NS(=O)(=O)c3ccc(Cl)cc3)ccc2O[C@H]1CN(C)Cc1ccc(Oc2ccccc2)cc1,i
CCCC(=O)Nc1ccc2c(c1)C(=O)N(C)C[C@@H](OC)[C@@H](C)CN(C(C)=O)[C@H](C)CO2,i
CC(C)(C)S(=O)N1Cc2cc(C(=O)O)nc(-c3cccc(-c4cccc(F)c4)c3)c2[C@H]1CCO (stereo partly drawn),i
CCC(=O)N1CC2(C1)[C@@H](c1ccc(-c3ccc(F)cc3)cc1)[C@@H](CO)N2C(=O)CC,i
CCCN1CCC2(CC1)CN(Cc1ccc3c(c1)OCO3)[C@H](CO)c1[nH]c3cc(OC)ccc3c12,i
C/C=C/c1ccccc1[C@@H]1[C@@H](CO)N(C(=O)CN2CCOCC2)[C@H]1C#N,i
COc1cccc(-c2ccc3c(c2)[C@H]2[C@H](CCN2S(=O)(=O)c2cn(C)cn2)[C@H](CO)N3)c1,i
